gsp agonist = gsp mutant agonism | gsp mutant cells, cAMP HTRF, 30 min; control for the full effect not named in the record | Potency, µM (doses to about 76.9 µM), for the others: at the top dose activation (cAMP increase), most hits filed as activators | actives 0.13% (n = 340,000) | AID 624287; active = well fitted activation curve with a large enough effect; inconclusive = small, poorly fitted or top-dose-only effect, or another doubt; inactive = no such curve, though single readings can be large or run the other way; cell line not stated here;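 note: phosphodiesterase inhibitor Ro 20-1724 added with compounds to block cAMP breakdown; potency is the fitted concentration of half-maximal effect; nearly all actives have a fitted effect of over 60% in size; about a fifth of the inactives were tested at one dose only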
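Cells stably selected in G418 were plated at 2000/well, grown 16-24 hr, then given compounds in DMSO with the PDE inhibitor […] (300 uM solution added) for 30 min at 37C; cAMP was read by HTRF.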
gsp antagonist = antagonists of gsp mutant (McCune-Albright syndrome) | gsp-mutant cells, cAMP HTRF, 30 min; control for the full effect not named in the record | Potency, µM (top dose mostly 76.9 µM), for the others: at the highest dose activity change, negative = inhibition, most hits filed as inhibitors | actives 0.4% (n = 340,000) | AID 624288; active = falling curve of any shape with a large fitted effect; inconclusive = falling curve, mostly with a smaller effect; inactive = flat or rising curve; cell line not stated here;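 note: intracellular cAMP measured with PDE inhibitor Ro 20-1724 present during compound exposure; potency is the fitted concentration of half-maximal effect; % is set by controls: 0 for no effect and ±100 for the full control effect; nearly all actives have a fitted effect of over 65% in size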
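G418-selected cells were plated in DMEM/10% FBS for 16-24 h at 37C, then treated with compounds plus the PDE inhibitor […] (300 uM solution added) for 30 min at 37C. Intracellular cAMP was measured by HTRF after 30 min lysis at room temperature.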
CtBP-E1A inh = CtBP/E1A binding inhibition; AlphaScreen GST-E1A/His-CtBP binding, 1536-well; hits give low values; control for the full effect not named in the record; activity change, % (no concentration beside the values); actives 0.49% (n = 340,000); in the data active means activity change below about -65%; inconclusive means about -30% to -65%; inactive means above about -30%; note: % is set by controls: 0 for no effect and ±100 for the full control effect; compound concentration not given in the record
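GST-E1A and His-tagged CtBP (125 nM each as 5X stock) were preincubated with pin-transferred compound for 2 h at 37 °C in the dark, then glutathione donor and nickel acceptor beads were added for 1 h before AlphaScreen reading.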
Six1-Eya2 blk = Six1/Eya2 interaction inhibition; AID 651725; actives 0.56% (n = 360,000); AlphaScreen GST-Six1/His-Eya2 binding, biochemical; hits give low values; control for the full effect not named in the record; activity change, % (test concentration not listed); in the data active = activity change below about -65%; inconclusive = about -30% to -65%; inactive = above about -30%; note: % is set by controls: 0 for no effect and ±100 for the full control effect; compound concentration not given in the record
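Homogeneous AlphaScreen proximity assay pairing GST-Six1 with His-tagged Eya2 (added as 5X mix: 250 nM and 500 nM) in 50 mM Tris pH 8.0, 300 mM NaCl, 1 mM TCEP. Glutathione donor and nickel acceptor beads; 1 h, 37 °C, dark.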
D2 PAM = potentiates the human D2 dopamine receptor allosterically | P14416 | DiscoveRx D2 beta-arrestin cells, luminescence, 90 min; 100% = 57 uM dopamine signal | actives 0.23% (n = 360,000) | potentiation, % (no concentration beside the values); active = potentiation of 50% or more; inconclusive = 30% to 50%; inactive = 30% or less;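 note: compound concentration not given in the record; tested on top of an EC20 dose of dopamine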
Target sequence (P14416 whole entry, looked up): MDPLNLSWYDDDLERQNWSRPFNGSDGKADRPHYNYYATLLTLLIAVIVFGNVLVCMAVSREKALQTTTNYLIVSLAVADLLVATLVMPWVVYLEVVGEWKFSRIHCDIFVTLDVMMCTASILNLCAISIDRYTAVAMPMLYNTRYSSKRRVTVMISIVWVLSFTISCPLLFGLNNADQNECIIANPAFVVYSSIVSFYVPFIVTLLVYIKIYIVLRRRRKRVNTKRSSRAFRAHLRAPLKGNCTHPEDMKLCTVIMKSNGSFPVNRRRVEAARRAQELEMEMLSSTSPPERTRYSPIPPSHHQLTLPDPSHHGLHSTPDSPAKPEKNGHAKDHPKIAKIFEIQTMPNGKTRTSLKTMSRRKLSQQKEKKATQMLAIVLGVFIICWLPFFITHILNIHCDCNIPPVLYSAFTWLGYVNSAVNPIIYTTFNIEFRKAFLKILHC
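PathHunter beta-arrestin assay in DiscoveRx D2 cells. Compounds were added with an EC20 of dopamine (50 nM final) for 90 min at 37 deg C. Luminescence was read 1 h after detection reagent, with 57 uM dopamine as the EC100 control.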
D2 ag = activates the human D2 dopamine receptor. P14416. DiscoveRx PathHunter D2 beta-arrestin, luminescence, 90 min; 100% = 57 uM dopamine signal. activation, % (concentration not given with the values). actives 0.084% (n = 360,000); in the data active = activation above about 40%; inconclusive = about 15% to 40%; inactive = below about 15%; note: compound concentration not given in the record; the text of the record calls up to 30% inactive
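Agonist mode: compounds alone added to overnight-plated D2 PathHunter cells for 90 min at 37 C, with 57 uM final dopamine (EC100) defining full response. Beta-arrestin recruitment detected by chemiluminescent reagent, read after 1 h at ambient temperature.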
An asterisk follows results filed as active; ? = inconclusive; nt = no result given; & = joins results of further samples; [ ] = another dose, or the depositor's remark. Outcome played no part in choosing rows; about 1.4% have a hit in one of these screens.

The opening 8 compounds, to show the layout:
Values in the order – Six1-Eya2 blk	CtBP-E1A inh	D2 ag	gsp antagonist	D2 PAM	gsp agonist
- O=C(NCc1ccc2c(c1)OCO2)c1ccc(CSCc2cccc(Cl)c2)o1
 : -12	-11	-0.4	10%	11	?
- COc1ccccc1N1CCN(CC(=O)Nc2ccccc2C(=O)NC(C)c2ccccc2)CC1 (stereo not drawn)
 : -2	-2	0.6	-20%	-26	-8%
- CC1CCCN(Cc2c(O)ccc3c(=O)c(-c4ccc(Cl)cc4)coc23)C1 (stereo not drawn)
 : 3	8	-2.1	5%	-2	-18%
- CC(C)C[C@H]1CN([C@@H](CC(C)C)CN2CCC[C@@H]2CN2C(=O)C(=O)NC[C@@H]2Cc2ccccc2)C(=O)C(=O)N1CC1CCCCC1
 : 1	0	-8.1	-20%	-11	nt
- COC(=O)C1=C(Nc2ccc(C)cc2)C=C(C)C(C(=O)OC)C1c1ccc(F)cc1 (stereo not drawn)
 : 9	20	-5.0	2%	-39	-22%
- CC(C)N(C(=O)COC(=O)c1ccc([N+](=O)[O-])cc1)c1ccccc1
 : -2	9	-4.8	9%	-2	1%
- COCc1cc(=O)[nH]c(N2CCN(c3ccccc3OC)CC2)n1
 : 3	4	11	-19%	2	-24%
- CCOCCCNC(=O)C1c2ccccc2Oc2ccccc21
 : -12	-1	-3.8	-8%	-25	5%[15.4 µM]

Main list, from the start:
Values in the order – Six1-Eya2 blk	CtBP-E1A inh	D2 ag	gsp antagonist	D2 PAM	gsp agonist
- O=C(NCc1ccc2c(c1)OCO2)c1ccc(CSCc2cccc(Cl)c2)o1
 : -12	-11	-0.4	10%	11	?
- COc1ccccc1N1CCN(CC(=O)Nc2ccccc2C(=O)NC(C)c2ccccc2)CC1 (stereo not drawn)
 : -2	-2	0.6	-20%	-26	-8%
- CC1CCCN(Cc2c(O)ccc3c(=O)c(-c4ccc(Cl)cc4)coc23)C1 (stereo not drawn)
 : 3	8	-2.1	5%	-2	-18%
- CC(C)C[C@H]1CN([C@@H](CC(C)C)CN2CCC[C@@H]2CN2C(=O)C(=O)NC[C@@H]2Cc2ccccc2)C(=O)C(=O)N1CC1CCCCC1
 : 1	0	-8.1	-20%	-11	nt
- COC(=O)C1=C(Nc2ccc(C)cc2)C=C(C)C(C(=O)OC)C1c1ccc(F)cc1 (stereo not drawn)
 : 9	20	-5.0	2%	-39	-22%
- CC(C)N(C(=O)COC(=O)c1ccc([N+](=O)[O-])cc1)c1ccccc1
 : -2	9	-4.8	9%	-2	1%
- COCc1cc(=O)[nH]c(N2CCN(c3ccccc3OC)CC2)n1
 : 3	4	11	-19%	2	-24%
- CCOCCCNC(=O)C1c2ccccc2Oc2ccccc21
 : -12	-1	-3.8	-8%	-25	5%[15.4 µM]
- COc1ccccc1N1CCN(C(=O)c2sc3ncn(CC(=O)N4CCC(C)CC4)c(=O)c3c2C)CC1
 : -5	0	-2.7	-7%	5	-2%
- OCCNCc1cccc(Br)c1
 : -11	-2	-2.8	-6%	-19	3%[15.4 µM]
- CCOc1ccc2nc(Cl)c(C3CC(c4ccco4)=NN3S(C)(=O)=O)cc2c1 (stereo not drawn)
 : -3	-6	-3.4	-12%	-1	-1%[15.4 µM]
- C/C(CC(=O)Nc1cccc(Cl)c1)=N\NC(=O)Cc1ccc(Cl)cc1
 : -1	-9	-4.9	-10%	9	-7%
- Cc1ccc(-n2c(NN)nc3ccccc3c2=O)c(C)c1
 : 1	8	2.2	5%	-1	-29%
- CCOC(=O)C1=CN(Cc2cccc(F)c2)S(=O)(=O)NC1c1ccc(Br)cc1F (stereo not drawn)
 : -2	5	-6.4	-10%	-8	nt
- CCN(C(=O)Cc1nc(N)n[nH]1)C1(C(=O)Nc2ccccc2)CCCCC1
 : ?	?	-1.5	8%	2	-19%[15.4 µM]
- CC(C)c1ccc(/C=N/NC(=O)c2ccc(-n3cnnn3)cc2)cc1
 : -1	-2	3.0	-1%	6	40%[15.4 µM]
- COC(=O)c1nnn(CC(=O)NC(=O)Nc2ccccc2F)c1C(=O)OC
 : -3	nt	-6.0	-2%	-2	-12%
- Oc1cncc(Cc2ccccc2)c1
 : 15	0	-5.3	-11%	-20	-1%[15.4 µM]
- O=C(NCc1cccnc1)c1sc2cc(Cl)ccc2c1Cl
 : -7	-7	0.4	-6%	-11	24%
- CSc1ncccc1C(=O)OCC(=O)Nc1ccc2c(c1)CCC2
 : 5	-3	-1.1	-1%	0	-72%[inhibitor]
- COc1ccc(C(C)(C)C)cc1NC(=S)NCCN1CCOCC1
 : 0	0	1.3	4%	-43	13%[15.4 µM]
- O=C(c1cc2ccccc2oc1=O)N1CCCCCCC1
 : 2	-3	3.2	1%	0	13%[15.4 µM]
- O=C(NNS(=O)(=O)c1ccccc1)c1ccc(S(=O)(=O)N2CCCCC2)cc1
 : 7	-10	1.0	4%	-14	14%
- COc1ccc(C2CC(=O)c3cnn(-c4nc(C)cc(C)n4)c3C2)cc1OC (stereo not drawn)
 : -3	-2	-1.2	-9%	-11	1%[15.4 µM]
- Cc1ccc2c(c1)N(C(=O)CCC(=O)O)CCO2
 : 4	16	0.1	-1%	-15	-10%[15.4 µM]
- O=C(O)c1ccc2c(c1)ncn2C1CCCCCC1
 : 5	10	1.0	-19%	11	-21%
- Cc1ccc(NS(=O)(=O)c2cccc(C(=O)N/N=C/c3ccc4c(c3)OCCO4)c2)c(C)c1
 : ?	-25	1.7	-11%	-23	-73%[inhibitor]
- O=C(Nc1cccnc1)c1cn(-c2ccccc2)nc1-c1cccs1
 : -9	12	-0.1	-15%	-29	?
- COc1ccccc1N1CC(C(=O)Nc2ccccc2N2CCCC2)CC1=O (stereo not drawn)
 : 1	0	1.2	-5%	0	6%[15.4 µM]
- O=C1CCC[C@@H]2Cc3nc4ccc(O)cc4cc3[C@@H]3CCN1[C@H]23
 : -11	1	5.8	-6%	30	nt
- O=C(O)COCC(=O)N1CCN(C(c2ccccc2)c2ccccc2)CC1
 : 11	10	0.6	-9%	-6	8%[15.4 µM]
- Cc1cc(C(=O)N2CCN(c3ncccn3)CC2)c(C)o1
 : 1	-1	-1.1	1%	-2	-5%
- CCOc1ccc(CN(CCC#N)C(=S)NC(=O)c2ccccc2)cc1
 : 3	nt	1.4	-16%	-13	18%
- CCOC(=O)C1=C(C)NC(C)=C(C(=O)OCC)C1C(=O)OCC(=O)NC(C)C
 : 8&-4	11&2	13&-0.5	3%&-11%	-32&-12	-7%[15.4 µM]
- O=C(CN1C(=O)NC2(CCCc3ccccc32)C1=O)c1ccc(Br)cc1 (stereo not drawn)
 : -6	-14	-1.2	0%	24	-7%
- COC(=O)Cc1ccc(NC(=S)N2CCCC(C)C2)cc1 (stereo not drawn)
 : 0	4	8.9	9%	1	-29%
- C=CCn1c(SCCNC(C)=O)nc2cc(-c3ccccc3)sc2c1=O
 : 11	0	-1.6	?	1	-4%[15.4 µM]
- CC(C)CCN1CCN(Cc2cnc(-c3ccccc3)s2)CC1CCO (stereo not drawn)
 : 0	-1	-1.4	7%	-4	2%[15.4 µM]
- COc1ccccc1[C@H]1C(c2cccc(Cl)c2)=NN(c2ccccc2)[C@@H]1CO
 : 155	93	4.7	9%	20	nt
- Cc1c(C(=O)Nc2cccc(S(=O)(=O)N3CCOCC3)c2)oc2ccc(Br)cc12
 : -8	7	-1.7	1%	-29	-4%[15.4 µM]
- O=C(O)c1cocc1C(=O)O
 : -1	5	-0.8	nt	-12	?
- COc1cccc(CN(C)C(=O)CC2C(=O)NCCN2C2Cc3ccccc3C2)c1 (stereo not drawn)
 : -1	-1	-1.6	8%	-2	-51%[inhibitor]
- CSCC[C@H](NC(=O)OC(C)(C)C)C(=O)N1CCC(C(=O)NCC(=O)Nc2ccc(C)cc2)CC1
 : -13	-5	-0.1	4%	-4	-1%
- Cc1ccc(NC(=O)Nc2ccc(F)cc2)nc1
 : 21	0	-1.2	7%	-27	?
- CC1C(=O)C(C)C(c2ccccc2)N(N=O)C1c1ccccc1 (stereo not drawn)
 : 0	-1	-0.2	12%	-1	-5%
- CN(C)c1ccc(C2C=C(c3ccc(Cl)cc3OC(F)F)Nc3ncnn32)cc1 (stereo not drawn)
 : -23	-8	-3.8&4.7	28%	3	0%
- Cn1c(N)c(C(=O)COC(=O)[C@@H]2CCCN2S(=O)(=O)c2ccc(Cl)cc2)c(=O)n(C)c1=O
 : -12	-1	0.2	-3%	-4	22%[15.4 µM]
- C/C(Cn1cnc([N+](=O)[O-])n1)=N\NC(=O)c1ccccc1O
 : -1	12	6.5	3%	-9	26%[15.4 µM]
- COc1c(/C=N/NC(=O)c2ccncc2)c(CCN(C)C(C)=O)cc2c1OCO2
 : -1	0	-4.2	-8%	-11	2%[15.4 µM]
- CCOc1ccc(NC(=O)C2CCCN(c3cnccn3)C2)cc1 (stereo not drawn)
 : 0	0	-1.4	3%	0	1%
- COc1cc(C(=O)NC2CCCCC2)ccc1OCc1ccc(Cl)cc1Cl
 : 24	7	-3.8	-4%	-13	15%[15.4 µM]
- CCN(CC)S(=O)(=O)c1cc(C(=O)Oc2ccccc2OC)ccc1OC
 : -3	4	-3.3	-14%	-5	22%
- CSC1=C(C#N)C(c2ccccc2)C(C(C)=O)=C(C)N1 (stereo not drawn)
 : -1	nt	-6.9	-1%	-5	-42%
- CCOC(=O)[C@@H]1[C@H]2COc3ccccc3[C@@H]2N2C(=O)N(c3ccc(Br)cc3)C(=O)[C@]12C
 : 0	-7	0.0	-7%	-5	-5%
- COc1cccc(CNC(=O)CCC2CCCN(C/C=C/c3ccccc3OC)C2)c1 (stereo not drawn)
 : -10	-6	-2.1	7%	-32	1%[15.4 µM]
- COCCOc1ccc(C(F)(F)F)cc1NC(=O)c1ccc(F)cc1
 : 10	7	3.8	-9%	-19	-1%
- COc1cc(OC)cc(C(=O)N[C@H](C(=O)OCC(=O)c2c[nH]c3ccccc23)C(C)C)c1
 : -4	0	5.3	?	-9	-40%

Screening data from PubChem.
